# Screening results from PubChem.
# UCH37 DUB inh – blocks the human deubiquitinase UCH37 | purified proteasome/UCH37, Ub-AMC cleavage fluorescence | inhibition, % (test concentration not listed) | 0.33% of 330,000 active | AID 588478;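 active = mean of two replicates above 20%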;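 note: 0% = compound-free wells with enzyme and 100% = wells lacking proteasome; stock transfer was 100 nL into about 20 µL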
# Target sequence (Q9Y5K5 whole entry, looked up): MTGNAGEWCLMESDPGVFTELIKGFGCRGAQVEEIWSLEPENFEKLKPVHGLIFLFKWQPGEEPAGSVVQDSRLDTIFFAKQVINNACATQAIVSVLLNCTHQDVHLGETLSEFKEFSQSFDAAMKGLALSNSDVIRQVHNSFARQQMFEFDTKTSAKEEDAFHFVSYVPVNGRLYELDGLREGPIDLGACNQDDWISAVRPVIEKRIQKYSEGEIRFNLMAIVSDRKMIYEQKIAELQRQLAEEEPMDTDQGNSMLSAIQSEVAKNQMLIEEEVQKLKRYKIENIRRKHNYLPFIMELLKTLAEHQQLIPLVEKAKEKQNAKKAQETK
#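 Material: Human UCH37 enzyme supplied as purified proteasome complex | Schedule: 30 min preincubation with enzyme, 25 min cleavage at room temperature | Detection: AMC fluorescence 355/460 nm | Measure: % inhibition of Ub-AMC cleavage fluorescence | Controls: Wells without proteasome as full block, compound-free enzyme plus substrate as uninhibited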
# Beta apoptosis – blocks beta cell apoptosis; INS-1E cytokine-induced death, ATP luminescence, 48 h; percent of positive-control rescue, neutral wells zero; protection from apoptosis, % (no concentration beside the values); 0.8% of 300,000 active; AID 435005;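 active = all replicates at 75% or more, or half of them and the mean; inconclusive = half reach 75% but not the mean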;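 note: 0% = cytokine-treated negative control wells and 100% = positive control rescue; higher means more ATP so stronger rescue from cytokine killing; wells of about 40 µL received 100 nL stock; the first replicate is given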
# T cruzi repl – blocks replication of Trypanosoma cruzi; T. cruzi beta-gal in NIH3T3, luminescence, 90 h; inhibition, % (concentration not given with the values); 1.4% of 300,000 active; AID 1885;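 active = mean inhibition across valid replicates above about 55%, limit read from the data; inconclusive = mean below that limit but half or more replicates reach it; inactive = mean below it, under half of replicates reach it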;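 note: signal also drops with host cell toxicity which is not excluded here; 0% = plate median of DMSO wells and 100% = zero luminescence signal; higher percent means less beta-gal luminescence so fewer parasites; stock transfer was 50 nL into about 50 µL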
# Calb FLC – C. albicans growth modulation with fluconazole; growth inhibition, % (no concentration beside the values); 0.57% of 300,000 active; C. albicans CaCi-2 (fluconazole-resistant clinical isolate) + fluconazole, Alamar Blue growth, 48 h;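 active = most replicates above 75%; inconclusive = exactly half above 75%; inactive = most below 75%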;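 note: all wells also contain fluconazole at 8 µg/ml as a sub-toxic cotreatment; 0% = median of DMSO wells and 100% = median of geldanamycin control wells; wells of about 8 µL received 7.5 nL stock; the first replicate is given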
# Bfl-1 A1 inh – inhibitors of the anti-apoptotic protein A1, read as caspase activation. MEF A1-2A-BIM cells, Caspase-Glo 3/7 luminescence, 3 h; percent of clofoctol response, vehicle zero. caspase activation, % (concentration not given with the values). 0.066% of 330,000 active;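 active = over half of replicate activation scores above 10%, or exactly half above 10 with the replicate mean above 10; inconclusive = replicate mean below 10 yet half the replicates above 10; inactive = over half of replicates below 10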;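 note: wells of about 30 µL received 50 nL stock; many hits fall short of the cut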
# Beta2AR agonist – agonists of human beta-2 adrenergic receptor inducing internalization | response, % (test concentration not listed) | Am2.2-beta2AR cells, FAP receptor internalization, flow cytometry; reference of the scale not given here | P07550 | 0.43% of 340,000 active;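 active = response above a set limit, near 3 SD of response in nonfluorescent compounds, cut at about 42% in these data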;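 note: stock transfer was 100 nL into about 11 µL; a reference agonist was the positive control; negative values mostly stem from fluorescent compounds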
# Target sequence (P07550 whole entry, looked up): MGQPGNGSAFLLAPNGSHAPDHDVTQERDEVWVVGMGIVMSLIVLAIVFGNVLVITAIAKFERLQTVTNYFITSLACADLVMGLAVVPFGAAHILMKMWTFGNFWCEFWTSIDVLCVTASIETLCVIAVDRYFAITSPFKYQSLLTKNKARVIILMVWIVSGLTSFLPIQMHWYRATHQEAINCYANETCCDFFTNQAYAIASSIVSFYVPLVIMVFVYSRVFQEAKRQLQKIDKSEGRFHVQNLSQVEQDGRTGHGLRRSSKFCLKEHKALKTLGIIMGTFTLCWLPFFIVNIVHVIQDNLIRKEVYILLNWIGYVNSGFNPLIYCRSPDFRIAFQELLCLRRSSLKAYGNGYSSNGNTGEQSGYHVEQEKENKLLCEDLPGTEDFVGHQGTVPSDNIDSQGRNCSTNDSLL
# RanGTP-Impb inh – inhibitors of RanGTP-importin-beta interaction, primary screen, biochemical, FRET, CFP-Ran, YFP-importin-beta, homogeneous | inhibition, % (no concentration beside the values) | 1.1% of 300,000 active | AID 2216 | cell-free CFP-Ran/YFP-importin-beta FRET ratio;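 active = most replicates above 15%; inconclusive = exactly half above 15%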;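 note: 0% = DMSO wells and 100% = Ran loaded with GDP instead of GTP; wells of about 40 µL received 100 nL stock; the first replicate is given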
# LANA-H2A inh – blocks KSHV LANA binding to histone H2A/H2B. Q9QR71. cell-free LANA-H2A/H2B peptide, fluorescence polarization. inhibition, % (concentration not given with the values). 0.6% of 320,000 active; in the data active = inhibition mostly above about 10%, no sharp cut-off; inactive = mostly below about 6.7%;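 note: stock transfer was 7.5 nL into about 10 µL; 0% = median of vehicle wells and 100% = median of positive control wells; one replicate is shown; the record names a cut of 25% in any replicate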
# * = called active by the depositor; i = inactive; ? = inconclusive; nt = no result given. The order is random. About 4.3% of those tested had a hit in this group.
SMILES,UCH37 DUB inh,Beta apoptosis,T cruzi repl,Calb FLC,Bfl-1 A1 inh,Beta2AR agonist,RanGTP-Impb inh,LANA-H2A inh
O=C(CSc1nc2ncccc2[nH]1)c1ccc2c(c1)OCO2,2.6,1,-3,-1,0.0,7,4.0,-0.4
Nc1nnc(CC(=O)N/N=C\c2cc([N+](=O)[O-])ccc2O)s1,nt,-4,-14,-37,0.9,2,3.7,1.9
O=C(NCc1nnc(SCC(=O)N2CCCC2)o1)c1cccc(C(F)(F)F)c1,3.6,-3,-4,0,0.4,-8,5.5,-1.9
CCC(C)(C)NC(=O)CN(Cc1cccs1)C(=O)CNS(=O)(=O)c1ccc(F)cc1,2.2,0,-12,4,1.3,-177,-0.2,2.6
COc1ccc2c(c1)C(=C(C#N)C#N)C(=O)N2CCc1ccccc1,nt,12,nt,-5,2.6,19,-1.2,-5.4
CCOc1ccc(C(=O)c2cc([N+](=O)[O-])ccc2N2CCOCC2)cc1,6.5,79*,-5,-11,1.5,28,?,3.5
CO/N=C/c1ccc(N2CCN(C(=O)c3ccc(F)cc3)CC2)c([N+](=O)[O-])c1,nt,nt,-17,3,0.4,-1,-5.3,-3.4
CN(C)S(=O)(=O)c1ccc2c(c1)nc(CCC(=O)Nc1ccc3c(c1)OCO3)n2C,1.8,nt,-4,?,0.2,-1,?,-2.0
COc1ccccc1S(=O)(=O)Cc1ccc(C(=O)NCC2CCCO2)o1 (configuration not stated),1.2,-8,-17,7,1.2,2,-3.2,0.0
C/C(Cc1ccccc1)=N\NC(=O)CNC(=O)c1ccc(F)cc1,nt,-2,1,9,1.9,1,4.3,5.2
COc1cc(NC(=O)CNC(c2ccccc2)c2ccccc2)cc(OC)c1OC,6.0,-1,7,7,1.6,10,-1.7,6.7
CNC(=O)NC(=O)C(C)OC(=O)CCCc1nc2ccccc2s1 (configuration not stated),1.9,-10,-6,6,0.6,4,-1.2,3.5
Cc1noc(C)c1C(=O)N1CC(C)OC(C)C1 (configuration not stated),2.2,-7,-6,-10,1.0,5,8.0,5.2
O=C(O)CC1CCS(=O)(=O)C1 (configuration not stated),0.4,-5,-3,-3,0.1,7,-1.9,-2.1
COc1ccc(C(=O)NCCc2ccc(F)cc2)cc1OC,-0.6,-4,-1,-8,-0.1,4,-2.7,-0.9
COc1ccc(C(=O)Nc2cccc(-c3csc(C)n3)c2)cc1S(=O)(=O)N1CCCC1,1.0,6,nt,nt,-0.3,11,nt,-3.1
C=CCn1c(-c2ccc3ncccc3c2)n[nH]c1=S,1.3,-6,10,1,0.3,6,-1.9,8.5
O=C(NCc1ccc(Cl)cc1)c1ccccc1CCc1ccccc1,4.2,-3,21,0,1.4,0,-2.6,5.3
COc1ccccc1CN(Cc1nc2ccccc2c(=O)[nH]1)C(=O)Nc1cccc(C)c1,3.2,7,15,3,-0.1,2,-1.9,1.1
COC(=O)c1cc(S(=O)(=O)NCc2ccc(Br)cc2)c[nH]1,1.5,-4,-8,0,0.9,-4,3.7,5.7
O=C(NC1CCCC1)c1cccc(Cl)c1,4.9,-1,-8,0,-0.5,5,1.9,1.3
CCOC(=O)c1c(-c2ccc(C)cc2)csc1NC1=NS(=O)(=O)c2ccccc21,-208,2,-5,18,-0.9,8,3.0,-2.9
CC(=O)N1CC(C)Oc2ccc(S(=O)(=O)Nc3ccc(Cl)cn3)cc21 (configuration not stated),9.5,1,1,6,0.2,0,0.0,3.8
O=C(COC(=O)c1ccccc1Nc1ccccc1)NCc1ccccc1,-33,-3,-10,4,0.4,-5,-0.7,-1.1
Cc1ccc(S(=O)(=O)Nc2cc(C(C(=O)OC(C)C)C(=O)C(F)(F)F)c(O)c3ccccc23)c(C)c1 (configuration not stated),-2.2,40,-9,21,-0.2,13,-0.6,3.3
COc1ccc(/C=C/C(=O)O)cc1S(=O)(=O)Nc1ccc2c(c1)OCO2,1.0,-3,-19,2,0.7,1,-0.1,1.3
Cc1cc(C)c(OCCCCn2cnc3ccccc3c2=O)c(C)c1,4.5,-2,7,24,0.7,-12,-2.1,-6.4
Cc1cc(=O)[nH]c(N/N=C/c2c(O)n(-c3ccccc3)c(=O)c3ccccc23)n1,12,1,-3,6,0.0,-21,-0.3,-1.8
CCCNCc1cc(OC)c(OCCC)cc1Cl,1.1,-6,-3,20,0.1,-6,2.4,3.4
Cc1ccc(-c2nc3ccccc3c(=O)n2CCN2CCOCC2)cc1,0.3,-1,-12,2,0.2,-10,2.2,3.4
COc1cccc(CNc2ccc([N+](=O)[O-])cc2Cl)c1O,2.8,-1,-3,12,0.8,3,1.9,1.8
C=C(C)CNC(=S)N/N=C/c1ccc([N+](=O)[O-])cc1,nt,nt,-2,-10,1.6,-2,4.1,0.0
CCOC(=O)N(C)OC(=O)Nc1ccc(Cl)c(Cl)c1,2.6,0,10,20,-3.5,7,-2.4,-11
Nc1nc2n(n1)C(c1cccc(Br)c1)CC(c1ccc(F)cc1)N2 (configuration not stated),2.3,-3,5,6,-0.1,3,2.4,-1.8
Cc1cc(NC(=O)c2c(Cl)cccc2Cl)no1,0.7,-8,-10,2,0.9,-3,0.7,-8.6
Clc1ccc(C2=C3CCCCn4c(-c5ccccc5)c[n+](c43)C2)cc1,i,-2,48,?,1.8,-10,1.5,11
CCOP(=O)(OCC)c1nc(-c2cccc([N+](=O)[O-])c2)oc1N1CCCCC1,5.6,6,2,28,-0.3,0,3.1,1.8
O=C(COC(=O)CC12CC3CC(CC(C3)C1)C2)Nc1cccnc1Cl,1.8,-5,2,9,0.4,4,4.9,0.9
CCCNC(=O)c1nc2ncc(Br)cn2n1,-0.3,0,1,0,-0.7,9,5.6,-0.4
O=C(Nc1ccc(S(=O)(=O)Nc2ncccn2)cc1)c1ccccc1,-1.9,nt,-11,-10,0.5,-2,3.1,-2.0
Cc1ccc(C(=O)NC2CCN(CC(=O)NCc3cccs3)CC2)cc1,2.2,-5,-2,-38,0.5,3,6.8,0.2
CN1CCN(c2ccccc2/C=N/NC(=O)c2cccnc2)CC1,nt,-10,19,-10,-2.8,-6,-0.5,4.1
COc1ccc(NC(=S)Nc2ccc(S(N)(=O)=O)cc2)c(OC)c1,1.2,-7,-5,11,1.1,-3,-5.1,-2.0
Cc1nn(C)cc1/C=N/NC(=O)c1ccc2c(c1)OCO2,nt,-7,-2,-16,0.1,2,1.5,-0.5
NC(=O)c1ncc(C(F)(F)F)cc1Oc1ccc(C(F)(F)F)cc1,1.8,-6,-11,0,0.5,-6,5.4,-3.6
CCCCC(=O)Nc1ccccc1N1CCN(c2ccccc2)CC1,4.7,-1,-7,29,-0.4,-6,5.8,-1.1
Cc1nn(C)cc1/C=N/O,nt,-4,-12,7,-0.4,5,4.6,1.0
CCOc1cc(CN2CCN(c3cccc(C(F)(F)F)c3)CC2)ccc1OC,0.2,-6,20,9,-0.7,-3,1.6,2.0
CN1CCCCc2c1nc1ccccc1c2N (tested in a mixture with another compound),-3.3,-3,12,1,1.0,-3,1.2,2.7
COc1ccc(OC)c(S(=O)(=O)NC(C)CCc2ccccc2)c1 (configuration not stated),3.9,-13,8,12,-0.3,-1,-1.6,-1.1
CCOc1ccc(S(=O)(=O)NCc2ccc(Cl)cc2)c2cccnc12,-66,0,3,25,0.7,-38,5.2,-0.2
O=C(OCc1ccccc1Cl)c1cc([N+](=O)[O-])ccc1N1CCOCC1,7.6,5,20,-10,0.3,-4,2.0,-4.0
COC(=O)Cc1cc(OC)c(OC)cc1S(=O)(=O)N(C)C,0.7,-1,-8,3,-0.1,-5,0.7,0.1
Cc1ccc(NC(=O)CN(C)C(=O)c2ccc(Sc3nncn3C)c([N+](=O)[O-])c2)cc1,2.0,-2,nt,nt,0.5,6,nt,0.0
COc1ccc(NC(=O)CCN2CCN(S(=O)(=O)c3cc(Cl)ccc3OC)CC2)cc1,0.3,8,14,-5,1.3,-11,-0.9,-4.1
O=C(O)CCN1Cc2ccccc2C1=O,3.0,-1,-9,15,-0.1,0,-0.8,0.3
COc1ccc(/C(C)=N/N2CCOCC2)c(O)c1,nt,-9,-7,2,0.1,2,-1.7,25*
Cc1ccc(CN2CCC(Oc3cccc(C(=O)NCc4cccnc4)c3)CC2)o1,-1.2,1,14,-4,-0.7,6,1.0,2.1
O=C(C1CCN(S(=O)(=O)c2ccc(Cl)cc2)CC1)N1CCOCC1,0.1,5,-5,8,1.5,-2,-74,1.2
CSc1ncc(C(=O)Nc2cccc(Cl)c2C)c(C)n1,0.0,-5,-6,-5,0.3,7,-2.3,-0.5

# Two compounds from above with just UCH37 DUB inh and T cruzi repl.
SMILES,UCH37 DUB inh,T cruzi repl
O=C(OCc1ccccc1Cl)c1cc([N+](=O)[O-])ccc1N1CCOCC1,7.6,20
CSc1ncc(C(=O)Nc2cccc(Cl)c2C)c(C)n1,0.0,-6

# Remaining list, next part:
SMILES,UCH37 DUB inh,Beta apoptosis,T cruzi repl,Calb FLC,Bfl-1 A1 inh,Beta2AR agonist,RanGTP-Impb inh,LANA-H2A inh
O=C(c1ccc(N2C(=O)CCC2=O)cc1)N1CCN(c2ccccc2)CC1,3.1,-2,-34,3,0.1,4,7.7,4.6
Cn1c(=O)c2c(nc(N3CCNCC3)n2Cc2cccc3ccccc23)n(C)c1=O,0.2,0,10,-4,0.6,9,0.4,-0.5
CC[C@]12c3[nH]c4ccccc4c3CCN1C(=O)C(CC(=O)NCCN1CCOCC1)C[C@@H]2C(=O)N1CCN(C(=O)C2CC2)CC1 (some centres not stated),-1.0,-4,nt,nt,0.4,-2,nt,-485
O=C(O)c1ccccc1OCCOc1ccccc1C(=O)O,-2.4,-1,6,0,2.4,2,?,2.6
COc1ccc(-c2noc(-c3ccc(C)cc3)n2)cc1,2.0,-3,-11,-4,-2.7,-11,-6.9,-3.9
CCC(NC(=O)COc1ccc([N+](=O)[O-])cc1)c1ccccc1 (configuration not stated),1.6,-4,-10,-16,0.6,nt,7.2,-1.7
CC(=O)SC(C)CC(=O)Nc1ccccc1 (configuration not stated),7.1,0,1,-1,0.1,4,2.3,5.2
O=C(CN1CCN(C(c2ccccc2)c2ccccc2)CC1)NC(=O)NCc1ccco1,3.7,-5,1,30,0.4,9,-0.1,5.8
O=C(CSc1nc(C(F)(F)F)cc(=O)[nH]1)N1CCC(Cc2ccccc2)CC1,6.4,nt,15,?,0.1,-2,3.6,3.1
Cc1ccccc1/C=N/Nc1ncnc2nc[nH]c12,nt,-13,-25,12,-5.0,1,1.1,-4.1
O=C(COC(=O)c1ccco1)Nc1ccc([N+](=O)[O-])cc1Cl,3.7,1,nt,nt,0.4,-3,nt,-0.9
Cc1c(CNC2CCC(C)CC2)c(C(=O)O)c(C)n1Cc1ccccc1 (configuration not stated),2.2,-6,-15,-13,-0.5,-4,?,-1.6
CCN(CC1CCCO1)C(=O)CCc1nnc(Cc2ccc3c(c2)OCO3)o1 (configuration not stated),-0.1,-1,-1,-13,0.2,-1,3.3,-1.0
CCOC(=O)c1c(-c2ccc(-c3ccccc3)cc2)csc1NC(=O)C1C2CCC(O2)C1C(=O)O (configuration not stated),3.3,-8,-21,0,0.1,12,-5.6,-1.3
